MARV entry inh: blocks Marburg virus binding to or entry into cells; Marburg virus pseudotyped entry inhibition, cell reporter; control for the full effect not named in the record; about a third of the inactives were read at about 46 µM; Potency, µM (titrated, usually from 37.8 µM), for inactives: top-dose activity change, negative = inhibition, hits mostly inhibitors; 1.8% of 300,000 active; AID 540276; active = well fitted inhibition curve with a large enough effect; inconclusive = small, poorly fitted or top-dose-only effect, or effect the other way; inactive = flat fitted curve, though single readings scatter; tested in HEK293 cells; about a fifth of its hits are not listed in these tables; further: on the % scale 0 is the no-effect control and ±100 the full control effect; luciferase read-out
Cruzain noTriton: inhibitors of Trypanosoma cruzi cruzain without detergent | P25779 | purified cruzain, Z-FR-AMC fluorescence, no detergent | Potency, µM, for the others: max response, negative = inhibition, hits mostly inhibitors | 2.3% of 200,000 active;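 further: plate controls were enzyme without inhibitor for no effect and buffer without enzyme for full effect; nearly all actives have a fitted effect of over 40% in size; top concentration of the series not given in the record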
Target sequence (P25779 123-467 limits assumed): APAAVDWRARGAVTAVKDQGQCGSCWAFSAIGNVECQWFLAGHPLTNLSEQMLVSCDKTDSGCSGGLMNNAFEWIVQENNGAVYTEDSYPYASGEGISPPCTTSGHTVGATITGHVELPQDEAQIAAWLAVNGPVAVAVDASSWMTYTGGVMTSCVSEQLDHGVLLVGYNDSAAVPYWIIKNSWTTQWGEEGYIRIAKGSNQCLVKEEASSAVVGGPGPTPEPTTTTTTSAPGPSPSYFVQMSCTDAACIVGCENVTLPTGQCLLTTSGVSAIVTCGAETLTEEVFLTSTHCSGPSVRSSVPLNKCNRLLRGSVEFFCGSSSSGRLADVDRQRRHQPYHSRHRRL
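Detergent-free condition (0.00005% Triton X-100) in acetate buffer pH 5.5 with DTT. 1.5 nM enzyme and compound were pre-mixed 15 min, then 2 uM Z-FR-AMC substrate added; reaction progress from fluorescence change between first and third reads (60 s).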
StopGo reporter: FMDV 2A StopGo reporter, luciferase signal; human cells with a luciferase reporter of 2A StopGo recoding; control for the full effect not named in the record; Potency, µM (top dose mostly 57.9 µM), for the others: at the highest dose signal change, negative = less light; 1.2% of 410,000 active; active = well fitted falling curve with a large enough effect; inconclusive = small, poorly fitted or top-dose-only effect; inactive = no such curve, though single readings can be large or run the other way; tested in HEK293T cells; further: on the % scale 0 is the no-effect control and ±100 the full control effect; nearly all actives have a fitted effect of over 45% in size; luciferase light after 4 h
SARS PLP yeast: inhibitors of SARS-CoV papain-like protease in yeast; AID 485353; Potency, µM (highest dose often 32.9 µM), for inactives: at the highest dose activity, positive = growth rescue; S. cerevisiae expressing SARS-CoV PLpro, growth rescue; control for the full effect not named in the record; 0.19% of 330,000 active; active means well fitted rising curve with a large enough effect; inconclusive means small, poorly fitted or top-dose-only effect; inactive means no such curve, though single readings can be large or run the other way; further: 0% is about no effect; nearly all actives have a fitted effect of over 55% in size; growth read by luminescence after 48 h
RE007 growth inh: less growth of the S. pombe RE007 Vpr strain; S. pombe RE007 Vpr strain, BacTiter-Glo ATP luminescence, 24 h; control for the full effect not named in the record; Potency, µM (titrated, usually from 92.2 µM), inactives show top-dose activity change, negative = less growth; 0.21% of 360,000 active; AID 651644; active = well fitted falling curve with a large enough effect; inconclusive = small, poorly fitted or top-dose-only effect; inactive = no such curve, though single readings can be large or run the other way;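 further: on the % scale 0 is the no-effect control and ±100 the full control effect; nearly all actives have a fitted effect of over 50% in size; the assay follows cell death caused by Vpr and the record does not say whether a fall means rescue or toxicity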
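Fission yeast RE007 carrying one integrated HIV-1 vpr copy, seeded at OD 0.01 in PMG+AL medium with 23 nL pinned compound. Grown 24 h at 30 degrees; viability read by BacTiter-Glo luminescence after 5 min.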
Lassa entry inh: blocks Lassa virus binding to or entry into cells; AID 540256; Lassa virus pseudotype entry inhibition, cell reporter; control for the full effect not named in the record; 1.2% of 300,000 active; Potency, µM (series often up to 37.9 µM), for the others: top-dose activity change, negative = inhibition, hits mostly inhibitors; active means well fitted inhibition curve with a large enough effect; inconclusive means small, poorly fitted or top-dose-only effect, or effect the other way; inactive means flat fitted curve, though single readings scatter; tested in HEK293 cells; further: on the % scale 0 is the no-effect control and ±100 the full control effect; nearly all actives have a fitted effect of over 50% in size; luciferase read-out
NS1 function inh: inhibitors of influenza NS1 protein function. S. cerevisiae slowed by influenza A NS1, growth recovery by OD600. Potency, µM (highest dose often 46.1 µM), for inactives: at the highest dose activity, positive = more growth. 0.4% of 270,000 active; active means well fitted rising curve with a large enough effect; inconclusive means small, poorly fitted or top-dose-only effect; inactive means no such curve, though single readings can be large or run the other way; further: nearly all actives have a fitted effect of over 50% in size
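In this qHTS, NS1 from influenza A is expressed in budding yeast, where it slows growth. Cells are switched from glucose to 2% galactose medium (pH 6.0, -URA), treated with compound, and growth recovery is read at OD600.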
Cruzain Triton: blocks cruzain activity in presence of Triton detergent | Potency, µM, inactives show max response, negative = inhibition, actives largely listed as inhibitors | AID 1478 | purified cruzain, Z-FR-AMC fluorescence, 0.01% Triton | P25779 | 0.43% of 200,000 active;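 further: plate controls were neutral wells for no effect and buffer without enzyme for full effect; nearly all actives have a fitted effect of over 40% in size; top concentration of the series not given in the record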
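Z-FR-AMC hydrolysis (2 uM substrate) by cruzain (1.5 nM) monitored kinetically at ex 360/em 450 nm after 15 min room-temperature compound exposure; 0.01% Triton X-100, pH 5.5, 5 mM DTT.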
Starred values were filed as active, the others as inactive; ? = inconclusive; / = no result given; & = joins results of further samples; [ ] = dose if it differs, or a comment. Unless noted, the call rests on the fitted dose curve; in most records, active means well fitted curve in the direction sought with a large enough effect; inconclusive means small, poorly fitted or top-dose-only effect, or another doubt; inactive means no such curve, though single readings can be large; an effect the other way counts as inactive or inconclusive. Potency means the concentration at half of the fitted maximal effect.

SMILES	MARV entry inh	Cruzain noTriton	StopGo reporter	SARS PLP yeast	RE007 growth inh	Lassa entry inh	NS1 function inh	Cruzain Triton
CCOC(=O)CSC1=C(C#N)C(c2ccccc2)C(C(C)=O)=C(C)N1 (stereo not drawn)	-8%	-17%	/	0%	15%	?	-25%	-4.2%
CCOc1cc(Cl)c(NC(=O)c2ccco2)cc1OCC	?	2%	-6%	-10%	-8%	-2%	-6%	-2.3%
O=C(Nc1ccc(F)cc1)Nc1ccccc1F	?	/	19%	-1%	-10%	-21%[46.1 µM]	-34%	/
Cc1ccc(Cl)cc1N1CCN(C(=O)CCS(=O)(=O)c2cc(Br)cc3c2N(C(=O)C2CC2)CC3)CC1	?	-3%	-12%	/	/	-28%[46.1 µM]	/	-2.9%
COc1cccc(/C=C2\CCCCC2=O)c1	-13%	/	5%	-3%	-17%	?	-4%	/
COc1ccc(/C(C)=N\Nc2nc(-c3ccccc3)cc(=O)[nH]2)cc1	?	-3%	-23%	3%	-5%	?	3%	-3.2%
COc1ccc(NC(=O)Nc2ccc3[nH]ccc3c2)cc1	12%	/	23%	/	11%	-4%	/	/
COCCNC(=O)CNC(=S)N(Cc1ccccc1)Cc1cccnc1	-30%	12%	13%	-13%	2%	5%	2%	2.3%
O=[N+]([O-])c1ccccc1/C=N/n1c(-c2cccnc2)n[nH]c1=S	-16%	-26%	-4%	-9%	6%	2%	20%	-3.3%
O=C(O)c1ccccc1NC(=O)C1C2C=CC(C2)C1C(=O)O (stereo not drawn)	-30%	/	-17%	-5%	5%	1%	-1%	/
Cc1ccc(Cl)cc1N1CCN(Cc2nc3c(c(=O)[nH]c(=O)n3C)n2Cc2ccccc2F)CC1	/	?	?	-2%	3%	/	-38%	-4.3%
CCc1noc(C)c1C(=O)N1CCCC(C(=O)c2cc(F)ccc2OC)C1 (stereo not drawn)	/	/	0%	1%	9%	/	-1%	/
Cc1cc(N2C(=O)C(=O)/C(=C(/O)c3ccc(Cl)cc3)C2c2cccc(Br)c2)no1 (stereo not drawn)	8%&-7%	?	-11%	1%	-30%	?	4%	-15%
CSc1nc(SCC(=O)NCC2CCCO2)c2c3c(sc2n1)CN(C)CC3 (stereo not drawn)	20%[46.1 µM]	/	-16%	1%	-19%	-1%[46.1 µM]	0%	/
C=CCn1c(O)c(N=NC(=O)C(O)c2ccccc2)c2ccccc21 (stereo not drawn)	/	/	16%	0%	13%	/	-3%	/
CNc1nc(SC)nc2ccsc12	-1%	1%	-9%	?	-14%	-1%	-7%	1.2%
Cc1nn(-c2ccccc2)c(C)c1/C=C/C(=O)OCC(=O)Nc1ncc(C(F)(F)F)cc1Cl	-9%	3%	-16%	13%	2%	7%	22%	-2.3%
O=c1oc2ccccc2c(CNc2ccccc2)c1[N+](=O)[O-]	/	/	-21%	0%	3%	/	5%	/
CSCCC(NC(=O)OC(C)(C)C)C(=O)NC(C(=O)NC(CC(C)C)C(N)=O)C(C)C (stereo not drawn)	11%	-6%	/	1%	-2%	2%	6%	-16%
O=C(NCCC(=O)N1CCc2ccccc21)c1ccccc1Cl	3%[46.1 µM]	/	15%	-4%	3%	5%	-13%	/
CN(C)/C=C1\C=C(c2ccccc2)OC1=O	-1%	-9%	45%[activator]	-8%	14%	2%	?	-11%
CC(=O)c1c(C)[nH]c(C(=O)OCC(=O)NCc2cccs2)c1C	-29%	/	-27%	3%	-23%	-11%	/	/
Cc1ccc2nc3c(cc(C(=O)NC4CCCCC4)c(=N)n3C(C)C)c(=O)n2c1	-18%[46.1 µM]	?	-21%	/	/	13%[46.1 µM]	/	-4.7%
COc1ccc2c(c1)CCCC21NC(=O)N(CC(=O)NC(=O)NCc2ccccc2)C1=O (stereo not drawn)	?	/	?	2%	6%	-28%	/	/
Cc1nc2ccccc2c2oc(C(=O)N3CCN(C4CCCCC4)CC3)cc12	-12%	-2%	?	-5%	-19%	-19%	-22%	0.2%
CCOC(=O)C1CCCN(S(=O)(=O)c2ccc3c(c2)CCN3C(=O)CC)C1 (stereo not drawn)	3%[46.1 µM]	-3%	?	/	/	0%[46.1 µM]	/	-0.8%
CCOC(=O)c1cn2nc(N3CCCC3)ccc2n1	3.5µM*	/	-69%	-2%	-17%	1.4µM*	4%	/
Cc1ccc(OCC(O)CN2CCN(c3ccccn3)CC2)c(C)c1 (stereo not drawn)	4%[46.1 µM]	/	-11%	-1%	0%	9%	-3%	/
CC1=CCC2C(=O)N(c3cccc(C(=O)NCc4ccccc4)c3)C(=O)C2C1 (stereo not drawn)	-15%[46.1 µM]	/	-26%	1%	-17%	?	-5%	/
COc1cccc2cc(C(C)N(CCCN3CCOCC3)C(=O)Nc3ccccc3)oc12 (stereo not drawn)	7%	2%	?	-1%	4%	0%	-6%	4.4%
O=C(CN1CCN(C(=O)C2CCN(C(=O)/C=C/c3ccccc3)CC2)CC1)Nc1ccc(F)cc1	/	/	-23%	/	24%	/	/	/
Cc1ccc(C(=O)c2oc3ccccc3c2NC(=O)COc2ccccc2Cl)cc1	-18%[46.1 µM]	19%	4%	/	/	17%[46.1 µM]	/	2.0%
COc1ccc(S(=O)(=O)N2CCOCC2)cc1NC(=O)CC1CCCC1	1%	/	-5%	-5%	1%	7%	/	/
CSc1ccccc1NC(=O)CN(C)Cc1cccc(Cl)c1	?	/	?	-4%	-21%	?	1%	/
CCOc1ccccc1NC(=O)c1ccoc1C	10%	-2%	2%	-2%	-17%	12%	-49%	-1.2%
COc1ccc(CNC(=O)Cn2nnc3ccccc3c2=O)cc1	/	/	60%[activator]	3%	0%	/	6%	/
Nc1nccc(-c2ccc(-n3cccc3)cc2)n1	2%[46.1 µM]	/	21%	-2%	-11%	12%[46.1 µM]	/	/
CCc1ccc(CN2CCc3nc(N4CCN(c5ccccc5F)CC4)ncc3C2)cc1	/	3%	?	/	/	-5%[46.1 µM]	/	0.4%
CCCN(CCC)C(=O)c1ccc2c(=O)n(Cc3ccco3)c(=S)[nH]c2c1	6%	/	-22%	0%	22%	-22%	/	/
CCOc1ccc(OCC)c(NC(=O)C2COc3ccccc3O2)c1 (stereo not drawn)	?	4%	-29%	1%	0%	1%	-5%	-2.7%
CCN=c1scc(C)n1/N=C/c1ccc(O)c(O)c1O	?	-21%	3%	-5%	-27%	1%	-14%	-13%
Cc1cc(C)n(CC2CC(=O)N(c3ccc(C)c(Cl)c3)C2=O)n1 (stereo not drawn)	?	12%	-26%	-11%	7%	5%	3%	-2.0%
Cc1ccc(S(=O)(=O)N2CCOCC2)cc1C(=O)OCC(=O)Nc1ccc2c(c1)OCO2	-2%	3%	-10%	/	6%	11%	-8%	0.6%
CSc1ccccc1NC(=O)CSc1n[nH]c(N)n1	-2%[46.1 µM]	/	2%	0%	10%	-2%	/	/
Cn1c(=O)c2c(nc(CN3CCC(C(N)=O)CC3)n2Cc2ccccc2Cl)n(C)c1=O	-1%	1%	-5%	1%	0%	18%	3%	0.3%
O=C(NCc1ccc(F)cc1)C1CCC(=O)N1CCc1ccccc1 (stereo not drawn)	/	1%	-22%	-1%	-4%	/	-4%	-1.8%
Cc1cccc(OCCCCCn2ccnc2)c1	5%	-3%	-28%	-1%	-16%	0%	-6%	4.1%
Cc1nc(NCC2CCCO2)c2oc3ccccc3c2n1 (stereo not drawn)	-13%	-7%	-30%	11%	2%	1%	?	5.1%
COCCn1c(-c2ccc(Cl)cc2Cl)nc2c(c(=O)c3ccccc3n2C)c1=O	1%	-2%	?	6%	-11%	-1%	9%	-2.1%
CN1CCN(c2nc3ccccn3c(=O)c2C=O)CC1	?	/	-20%	-5%	-10%	-2%	9%	/

(cont.)
SMILES	MARV entry inh	Cruzain noTriton	StopGo reporter	SARS PLP yeast	RE007 growth inh	Lassa entry inh	NS1 function inh	Cruzain Triton
CCOC(=O)C1C(=O)NC(SC)=C(C#N)C1c1ccccc1F (stereo not drawn)	7%	6%	-13%	5%	1%	3%	8%	3.3%
Cn1cnnc1Sc1ccc(C(=O)OCC(=O)NCC(F)(F)F)cc1[N+](=O)[O-]	15%[46.1 µM]	/	-4%	0%	-1%	2%	2%	/
CCOc1ccc2nc(NC(=O)CSC3=NCCS3)sc2c1	?	-7%	-26%	16%	-23%	?	-4%	-8.7%
Cc1ccc(S(=O)(=O)N[C@H](C(=O)N2CCC(C(=O)N3CCC[C@H]3C(=O)O)CC2)C(C)C)cc1	8%	-3%	1%	-9%	7%	?	?	2.2%
CC(C)(C)S(=O)(=O)c1ccccc1C(=O)O	0%[46.1 µM]	-5%	-4%	-1%	23%	-5%	7%	1.1%
COc1ccccc1NC(=O)C(C)N1CCN(C/C=C/c2ccccc2)CC1 (stereo not drawn)	-16%	-14%	-9%	-6%	-3%	1%	-15%	1.0%
CCNC(=S)NNC(=O)c1cc(-c2cccc(C)c2)nc2ccccc12	-29%	-5%	5%	-10%	?	?	-6%	-6.8%
CCc1ccc(NS(=O)(=O)c2cc(-c3cnc(C4CC4)o3)ccc2C)cc1	/	-1%	18%	/	/	?	/	-7.3%
O=C(O)C1CCCN1C(=O)OCC1c2ccccc2-c2ccccc21 (stereo not drawn)	/	/	7%	0%	3%	/	-2%	/
Cc1ccc(C(=O)COC(=O)CN2C(=O)C3C4CC(C(Br)C4Br)C3C2=O)cc1 (stereo not drawn)	-6%[46.1 µM]	/	12%	-3%	-21%	10%[46.1 µM]	1%	/
O=C(c1ccccc1)c1cc2ccccc2o1	?	-5%	36%[activator]	-2%	?	0%	-54%	-6.5%
Cc1ccsc1/C=N\NC(=O)c1cc(C(C)(C)C)[nH]n1	12%	/	58%[activator]	-1%	-20%	1%	-1%	/
COc1cccc(Oc2nc(-c3ccccc3O)nc3ccccc23)c1	/	/	-15%	1%	-7%	/	3%	/
CCN(CC)CCCN(Cc1cc2cc3c(cc2[nH]c1=O)OCO3)C(=S)NC	?	/	-9%	1%	16%	25%[46.1 µM]	2%	/

Screening data: PubChem, National Center for Advancing Translational Sciences (NCATS)
